Source: PubChem BioAssay
CSC inhib: blocks cancer stem cells; AID 2717; hit rate 1.1% among 300,000; inhibition, % at 7.5 µM; cancer stem cell-like cells viability, luminescence;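 active = mean at 75% or more and at least half the replicates too; inconclusive = mean and replicates disagree; tested in HMLE shEcad cells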;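 note: 0% = median of negative and 100% = median of positive control wells; the first replicate is given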
UUG fidelity: modulators of start codon recognition fidelity in yeast; AID 602363; activity score, % at 18.7 µM; hit rate 0.13% among 350,000; S. cerevisiae UUG-firefly luciferase reporter, luminescence/redox ratio;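 active = replicate mean at a twofold rise or more, about +100% in these data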;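 note: firefly luciferase made from a UUG start codon reports start codon fidelity; reporter light over untreated wells divided by growth signal over untreated wells; some hits fall short of that in this replicate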
eIF4H FP inh: inhibitors of RNA binding by human eIF4H. Q15056. eIF4H fluorescence polarization binding assay. inhibition, % at 35 µM. hit rate 0.94% among 290,000. AID 2012;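 active = 50% or more with normal probe brightness, or confirmed in later tests; inconclusive = above 50% with abnormal brightness, or retests that disagree; inactive = below 50% or failed in later tests; about a fifth of its hits are not listed in these tables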;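 note: calls also rest on retests at 20 µM and on dose response follow-up; 0% = protein and probe with vehicle and 100% = probe without protein; strong numbers were not always called active; many hits fall short of the cut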
MT1-MMP act inh: blocks activation of human MT1-MMP; P50281; HT1080 RFP-PRO-GFP cells, GFP/RFP ratio fluorescence, overnight; percent of plate control window, DMSO zero; GFP/RFP ratio change, % at 20 µM; hit rate 0.061% among 360,000;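 active = GFP/RFP ratio change of at least 30% with cell ATP level not reduced by more than half and red fluorescence within 50% of control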; note: strong numbers were not always called active
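Material: RFP-PRO-GFP reporter HT1080 cells. Dosing: single-point 20 µM compound, 1% DMSO. Controls: DMSO and RFP-L50D-GFP cell wells. Timing: cells overnight before dosing, compound overnight, 37 °C, 5% CO2. Measure: GFP/RFP fluorescence ratio.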
Rce1 inhib: blocks yeast Ras-converting enzyme; Q03530; yeast membranes, quenched prenylated peptide cleavage fluorescence; calls only; hit rate 0.27% among 290,000;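 active = fall in fluorescence gain of 50% or more versus controls, with final raw signal at or below 3038400; inconclusive = same 50% fall but final raw signal above 3038400; inactive = fall in fluorescence gain under 50%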;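 note: plate controls were neutral control wells for no effect and wells lacking membranes for full effect; tested at 10 µM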
PABP FP inh: PABP-poly(A) binding inhibition; inhibition, % at 35 µM; P11940; PABP-poly(A) RNA binding, fluorescence polarization; hit rate 1% among 290,000; AID 2014;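 active = 50% or more with normal probe brightness, or confirmed in later tests; inconclusive = above 50% with abnormal brightness, or retests that disagree; inactive = below 50% or failed in later tests; about a fifth of its hits are not listed in these tables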;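 note: calls also rest on retests at 20 µM and on dose response follow-up; controls were probe without protein and protein plus probe with vehicle; some compounds called inactive have numbers as strong as hits; many hits fall short of the cut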
Target sequence (P11940 whole entry, looked up): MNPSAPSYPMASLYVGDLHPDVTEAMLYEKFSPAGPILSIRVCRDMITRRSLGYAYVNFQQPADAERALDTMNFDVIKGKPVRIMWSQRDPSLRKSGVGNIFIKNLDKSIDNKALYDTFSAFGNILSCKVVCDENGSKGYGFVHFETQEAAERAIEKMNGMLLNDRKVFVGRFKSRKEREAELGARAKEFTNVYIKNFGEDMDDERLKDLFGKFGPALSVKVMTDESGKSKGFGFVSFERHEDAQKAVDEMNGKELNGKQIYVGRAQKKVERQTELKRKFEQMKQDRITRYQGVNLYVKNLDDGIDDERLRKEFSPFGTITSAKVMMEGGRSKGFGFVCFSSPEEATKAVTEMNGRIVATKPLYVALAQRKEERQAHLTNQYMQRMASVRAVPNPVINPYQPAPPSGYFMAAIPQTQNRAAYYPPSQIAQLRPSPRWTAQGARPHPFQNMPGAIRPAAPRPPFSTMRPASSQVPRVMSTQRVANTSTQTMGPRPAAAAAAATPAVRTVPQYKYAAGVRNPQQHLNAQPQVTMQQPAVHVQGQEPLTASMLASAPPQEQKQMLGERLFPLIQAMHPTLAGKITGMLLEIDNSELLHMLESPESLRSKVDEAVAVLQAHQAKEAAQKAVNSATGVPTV
HIV Env fusion: blocks HIV Env-driven cell-cell fusion. HeLa-JRFL Env/CEM21 cell fusion, luciferase. inhibition, % at 12.3 µM. hit rate 1.1% among 360,000;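 active = mean replicate inhibition score of at least 50 and every replicate individually at or above 50; inconclusive = only one of the two criteria met; inactive = mean below 50 and not all replicates reaching 50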;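 note: 0% = plate neutral controls and 100% = maraviroc near 300 nM; one replicate is shown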
eIF4H FP inh retest: also measured in eIF4H FP inh; calls as there; inhibition, %; compound at 20 µM; confirmation average;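 mean of two retest wells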
PABP FP inh retest: further read-out of PABP FP inh, marked with its call; inhibition, %; compound at 20 µM; confirmation repeats;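 mean of two retest wells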
MT1-MMP act inh RFP: second read-out of MT1-MMP act inh, no call of its own (marks repeat the call); RFP signal change, %; measured here: RFP expression control read;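 0 = vehicle wells; hits needed this value within 50% of zero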
An asterisk follows results filed as active; i = inactive; ? = inconclusive; / = no result given; & = joins results of further samples; [ ] = remark or other dose.

SMILES	CSC inhib	UUG fidelity	eIF4H FP inh	MT1-MMP act inh	MT1-MMP act inh RFP	Rce1 inhib	PABP FP inh	HIV Env fusion	others
O=C(Cc1csc(Nc2nc(=S)[nH]c3ccccc23)n1)NCc1cccc(Cl)c1	-6	-14	4	9	7	/	2	-26
CC1(Cc2ccc(F)cc2)C(=O)Nc2ccc(-c3cccnc3)cc21 (centres undefined)	/	-12	/	-10	-10	/	/	29
O=C(NCCCNC(=O)c1ccccn1)c1ccc(Br)cc1	3	14	5	1	1	i	4	-11
Cc1cc(Cl)ccc1NNC(=O)CCc1ccccc1	8	/	-20	4	2	i	-9	3
CCCCN(C(=O)c1cc(S(=O)(=O)N2CCOCC2)ccc1N1CCOCC1)c1ccccc1	/	9	/	-2	1	/	/	10
CCOC(=O)C1=C(C)OC(N)=C(C(=O)OCC)C1c1cccnc1 (centres undefined)	-5	-15	-5	-5	-3	i	-3	-14
COc1cc(C)c(C(=O)Oc2cc(C)c(C(=O)O)c(O)c2C)c(O)c1C	38	-5	/	2	-10	i	/	/
COc1ccccc1S(=O)(=O)N[C@@H]1CC[C@@H](CCn2cc(C3CC3)nn2)O[C@@H]1CO	/	10	/	1	4	/	/	9[16.7 µM]
CC(NC(=O)c1ccc(Br)cc1)c1ccc2c(c1)CCCC2 (centres undefined)	-5	-15	-6	-1	-9	i	31	26
Cc1ccc(S(=O)(=O)/N=C(/NNC(=O)c2cccc(Cl)c2)c2ccccc2)cc1	-8	-24	-4	-5	-5	i	-2	-76
Cc1cccc(S(=O)(=O)NC(=O)C2(C)CCN2C(=O)C/C=C/c2ccccc2)c1 (centres undefined)	/	-10	/	-2	4	/	/	-13
COc1ccc(C(C)(C)C)cc1NC(=O)CCCN1C(=O)NC(C)(C)C1=O	-7	8	/	-1	7	/	/	/
CCc1ccc(NC(=S)NNC(=O)c2ccccc2OC(F)F)cc1	-7	/	8	/	/	i	10	/
O=S(=O)(NCc1ccc(F)cc1)c1cccc(S(=O)(=O)N2CCOCC2)c1	-5	/	4	/	/	i	5	/
Cc1cccc2nc(CSCc3ccco3)cn12	-8	-30	76*	-7	4	i	72*	/
O=C(COc1ccc2c3c(c(=O)oc2c1)CCC3)N1CCCCC1	/	-8	-5	-3	0	i	9	-33
COc1ccc(CCC(=O)Nc2cccc(S(=O)(=O)N3CCCCCC3)c2)cc1OC	4	-3	/	-2	-22	/	/	/
O=C(COC(=O)c1cc(S(=O)(=O)N2CCOCC2)ccc1O)Nc1cc(S(=O)(=O)N2CCCC2)ccc1Cl	-12	-9	-4	-1	3	i	-3	0
COc1ccc(C(=O)Nc2ccnn2C2CCN(C(=O)CCC(F)(F)F)CC2)cc1	-12	-7	2	-1	0	i	3	-4
O=C(CSc1nnc(NC(=O)C2CC2)s1)NCc1ccccc1	-8	-8	-16	-1	2	i	2	11

Some of these compounds in order of length of the SMILES, descending.
SMILES	CSC inhib	UUG fidelity	eIF4H FP inh	MT1-MMP act inh	MT1-MMP act inh RFP	Rce1 inhib	PABP FP inh	HIV Env fusion	others
COc1ccc(CCC(=O)Nc2cccc(S(=O)(=O)N3CCCCCC3)c2)cc1OC	4	-3	/	-2	-22	/	/	/
O=S(=O)(NCc1ccc(F)cc1)c1cccc(S(=O)(=O)N2CCOCC2)c1	-5	/	4	/	/	i	5	/
O=C(COc1ccc2c3c(c(=O)oc2c1)CCC3)N1CCCCC1	/	-8	-5	-3	0	i	9	-33
Cc1cccc2nc(CSCc3ccco3)cn12	-8	-30	76*	-7	4	i	72*	/

The listing continues.
SMILES	CSC inhib	UUG fidelity	eIF4H FP inh	MT1-MMP act inh	MT1-MMP act inh RFP	Rce1 inhib	PABP FP inh	HIV Env fusion	others
CC(=O)Nc1ccc(S(=O)(=O)N2CCN(c3ccc(C(C)=O)cc3)CC2)cc1	/	-4	/	1	-12	/	/	-24
O=C(NCc1ccccc1)C1=C[C@H](c2csc3ccccc23)C[C@H](OCCCCO)O1	16	-2&-15	-8	-2	-9	i	-2	-20[16.7 µM]
COCc1c(C(=O)N(C)Cc2ccccc2N2CCCC2)oc2ccccc12	/	-13	/	-4	1	/	/	-2
CCOC(=O)c1ccc(N=c2scc(C)n2CC)cc1	-5	-22	-11	0	-2	i	-3	-7
Cc1cccc(NC(=O)N2CCN(Cc3ccc4c(c3)OCO4)CC2)c1C	-7	/	1	2	4	/	44	7
Cc1ccc(-c2c(NC(=O)c3ccco3)oc3ccccc3c2=O)cc1	10	-16	1	-5	-2	i	6	-6
CC1CN(CC(=O)Nc2ccc(S(N)(=O)=O)cc2)CC(C)O1 (centres undefined)	0	-24	6	-3	2	i	-2	/
Cc1ccc(N(CC(=O)NC(C)c2ccccc2)S(=O)(=O)c2cccs2)cc1 (centres undefined)	-2	/	6	0	0	i	2	/
COc1ccc(Cn2cnc3c(N)c(C)c(C)cc32)cc1	-7	/	-4	-2	0	i	-7	9
Cc1cc(NC(=O)Cn2c(=O)c3c(ncn3CC(C)C)n(Cc3ccccc3)c2=O)no1	/	9	-4	-1	0	i	-10	-73
Cc1cc(N2CCC(C(=O)N3CCN(c4cccc(C)c4C)CC3)CC2)n2ncnc2n1	/	-9	-4	-2	-17	/	-8	67*
CC(C)CN1CCC1(C)C(=O)Nc1ccc(OC(F)F)cc1 (centres undefined)	/	-14	/	1	-1	/	/	11
COc1ccc(/C=N/Nc2nnc(C)n2N)cc1OC(C)=O	6	-17	-6	-2	-1	i	-5	14
O=C(NCc1ccccn1)c1ccc(Cl)c(NC2=NC3CS(=O)(=O)CC3S2)c1 (centres undefined)	-2	-8	-6	-1	0	i	-8	-5
C/C(=N\Nc1nncc2ccccc12)c1cccc(OC(F)F)c1	19	-27	-7	0	-3	i	-11	-215
O=C(C1CCC(CNS(=O)(=O)c2ccccc2)CC1)N1CCOCC1 (centres undefined)	-19	-12	-8	1	4	i	-9	8
Cc1cc(NC(=O)C2C3C(=O)N(Cc4ccc(Cl)cc4)C(C(=O)NCc4ccccc4)C34C=CC2(C)O4)no1 (centres undefined)	-10	7	3	-2	2	i	-9	/
Cc1ccc(OCC(=O)NCc2ccccn2)c(Br)c1	/	-1	-2	-2	2	i	-5	/
CN(C)c1nc(NCc2ccccc2)nc(N/N=C/c2ccc3c(c2)OCO3)n1	10	/	-8	10	7	i	-10	-76
O=C(Oc1c(-c2ccco2)oc2ccccc2c1=O)c1cccnc1	5	-17	4	-130	4	i	5	23
CC(C)CC(NC(N)=O)C(=O)Nc1cccc([N+](=O)[O-])c1 (centres undefined)	-5	/	1	2	6	i	-8	9
Cc1ccn2c(Nc3ccccc3C)c(-c3ccccn3)nc2c1	58	-31	15	-3	-16	i	4	36
Fc1ccc(NC(=S)NN=C2CCCCCC2)cc1	-4	-31	1	-2	-1	i	-6	/
Cc1ccn2cc(CNS(=O)(=O)c3ccc4c(c3)OCCO4)nc2c1	3	-18	-8	5	0	i	4	-16
COc1ccc(OC)c(S(=O)(=O)Nc2cc(C)on2)c1	10	14	-3	2	5	i	-2	-1
CC(=O)c1c(C)[nH]c(C(=O)NC2CCCCC2)c1C	4	-3	-1	-2	1	i	6	/
O=C(O)CC1(c2ccccc2)C(=O)c2ccccc2C1=O	0	-5	-6	6	5	i	14	-76
O=[N+]([O-])c1ccccc1S(=O)(=O)Nc1ccc2c(c1)OCCO2	-13	-14	-3	3	3	i	-3	2
CCN(CC)CCCNC(=O)C1CCC(=O)N(c2ccc(OC)cc2)C1c1ccc(F)cc1 (centres undefined)	-16	-19	9	-2	3	i	-5	-11
Cc1ccccc1-c1nc(CS(=O)CC(=O)NCCN2CCN(Cc3ccccc3)CC2)c(C)o1 (centres undefined)	-2	2	4	2	1	i	-1	-10
COc1cc(CNCc2cccc3ccccc23)cc(OC)c1	6	1	-9	1	-2	i	5	-4
COc1ccccc1NC(=O)COC(=O)COc1ccccc1F	/	-16	/	2	3	/	/	-33
Cc1ccc(C)c(S(=O)(=O)N2CCN(CC(=O)Nc3ccc([N+](=O)[O-])cc3)CC2)c1	0	-20	-10	-3	-6	i	7	-7
COc1ccc(S(=O)(=O)NCCc2ccccn2)cc1	-12	-1	/	10	0	/	/	3
CC(CC(=O)O)CC(=O)N1CCN(S(=O)(=O)c2cccs2)CC1 (centres undefined)	-5	-17	3	0	4	i	3	8
Cc1ccc([N+](=O)[O-])cc1S(=O)(=O)N1CCC(C)CC1	0	/	3	3	0	i	6	13
Cc1ccccc1NC(=O)NCCN1C(=O)C2C3C=CC(C3)C2C1=O (centres undefined)	-10	-7	-3	12	5	i	-14	1
Cc1cc(C(=O)NCC(=O)OCC(=O)N(C2CCCCC2)C2CCCCC2)ccc1[N+](=O)[O-]	29	/	3	3	1	i	-3	7
CCOC(=O)C1Nc2ccccc2C2c3ccccc3CC12 (centres undefined)	2	-17	/	-12	-3	i	/	-22
Cn1c(SCC(=O)NC2CC2)nnc1-c1ccccc1Cl	-7	-14	0	3	9	i	2	-6
CCn1c(CSc2nc(C)cc(C)n2)nnc1SCC(=O)Nc1cccc2ccccc12	-7	-36	-11	0	5	i	-3	/
O=C(/C=C/c1ccccc1Cl)OCC(=O)N1CCCC1	/	-10	/	2	-4	/	/	4
COc1cccc(NC(=O)COC(=O)c2nc3nccc(C)n3n2)c1	-11	-9	-7	-4	5	i	-8	2
COc1cccc(NC(=O)COC(=O)c2c(NC(C)=O)sc(C)c2C)c1	-7	2	/	-3	1	/	/	-21
Brc1ccc(-c2cnco2)cc1	3	/	-3	1	7	i	-10	2
COc1ccc(OCc2nnc(SCC(=O)Nc3cccc(Cl)c3)o2)cc1	-3	-23	-6	1	1	i	-8	15
CCC(=O)Oc1ccc(C/C(=N\O)c2ccc(O)cc2O)o1	/	9	67	-17	-9	i	-5	13	eIF4H FP inh retest=-1;PABP FP inh retest=-4
COc1cccc(N2CCN(C(=O)c3cc4c(=O)n(Cc5ccccc5)ccc4nc3C)CC2)c1	48	-6	6	2	4	i	-1	5
N#CC1=C(N)NC(SCc2ccc(Br)cc2)=C(C#N)C12CCCCC2	40	-17	4	13	2	i	12	49
C=CCNc1ncnc2c1ncn2[C@H]1CN(Cc2ccc(-c3ccccc3)cc2)C[C@@H](CO)O1	/	-4	/	-5	-21	/	/	9
(cont.)
SMILES	CSC inhib	UUG fidelity	eIF4H FP inh	MT1-MMP act inh	MT1-MMP act inh RFP	Rce1 inhib	PABP FP inh	HIV Env fusion	others
Cn1cccc1/C=N/n1c(-c2ccc(Cl)cc2Cl)n[nH]c1=S	1	/	14	1	-2	i	-6	/
CC(Sc1nnnn1C)C(=O)Nc1ccc(N2CCOCC2)cc1 (centres undefined)	/	-18	7	1	-1	i	-1	?
C[C@H](CO)N1C[C@H](C)[C@@H](CN(C)S(=O)(=O)c2ccc(-n3cccn3)cc2)OCc2cnnn2CCCC1=O	/	-30&4	/	1	2	/	/	22
COC(=O)c1c(C)[nH]c(-c2csc(N)n2)c1C	60	/	?	23	10	i	12	-95
Cc1ncc(CN2CCCC(C(=O)Nc3ccc(-c4ccco4)cc3)C2)n1C (centres undefined)	3	-29	-2	3	2	i	-1	33
O=C1c2ccccc2C(Nc2ccc3c(c2)OCCO3)N1Cc1ccco1 (centres undefined)	/	-21	5	-3	-14	i	8	-25
O=C(c1cccc(NS(=O)(=O)c2ccc(F)c(F)c2)c1)N1CCCCC1	/	-1	/	-1	1	/	/	7
CC(C)Oc1ccc(CN2CCC(n3nccc3NC(=O)CCc3ccccc3)CC2)cc1	2	3	12	2	4	i	-12	-8
O=C(CNCc1cccc2ccccc12)Nc1ccccc1[N+](=O)[O-]	-1	/	3	0	-5	i	10	13
